# Sa RN4220 lethal: kills Staphylococcus aureus RN4220 | S. aureus RN4220 growth, OD600, 16 h | inhibition, % (no concentration beside the values) | hit rate 0.33% among 330,000 | AID 1259311;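 active means z-score of -3 or lower and OD600 up to 0.18 on both plates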;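 further: plate controls were untreated cells for no effect and reference antibiotic for full effect; stock transfer was 100 nL into about 80 µL; one replicate is shown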
# Mtb hypoxia inh: Mtb hypoxia fluorescent reporter inhibition; M. tuberculosis hypoxia-regulated fluorescent reporter, fluorescence; fluorescence inhibition, % (no concentration beside the values); hit rate 0.1% among 300,000; AID 1159583;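 active means 35 to 45% if threefold the growth effect, above 45% if 1.5-fold the growth effect; inactive means the rest, general growth blockers included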;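 further: wells of about 50 µL received 100 nL stock; 0% = vehicle wells and 100% = reference inhibitor wells; whole bacteria with a GFP reporter of the hypoxia response; strong numbers were not always called active; many hits fall short of the cut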
# PrP UTR inh: inhibition of PrP 5' UTR reporter expression | inhibition, % (test concentration not listed) | cell-based PrP 5' UTR mRNA reporter, plate reader | hit rate 0.35% among 340,000;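 active means every replicate at 50% or more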;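 further: 0 = median of the neutral control wells; tested in H4 reporter cells; numbers are from one replicate; inactives centre near -14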
# Bead autofluor: counter-screen for toxin protease inhibitors: compound fluorescence | AID 624483 | compound autofluorescence counterscreen, microsphere flow cytometry; active compounds read high | hit rate 3.1% among 360,000 | fluorescence intensity (concentration not given with the values);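 active means at least 3 SD above the mean of all compounds, about 16000 in these data; inconclusive means too few beads counted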;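 further: 100 nL of 1 mM stock went into each well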
# BJeLR lethal: kills HRASV12-expressing BJeLR cells. BJeLR (HRASV12) viability, CellTiter-Glo ATP luminescence, 48 h; reference of the scale not given here. inhibition, % (concentration not given with the values). hit rate 0.17% among 300,000. AID 1554;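 active means replicate mean above 50%; inconclusive means above 50% but judged a plate artefact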;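 further: 50 nL library stock added to about 25 µL; numbers are from one replicate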
# Sa ugtP lethal: compounds lethal to S. aureus RN4220 ugtP deletion mutant; OD600 growth, 16 h; some inactives read as strong as hits; growth inhibition, % (test concentration not listed); hit rate 0.54% among 330,000; AID 1259309;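 active means z-score under -3 and OD600 up to 0.15 on both plates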;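 further: plate controls were untreated wells for no effect and antibiotic for full effect; wells of about 80 µL received 100 nL stock; the first replicate is given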
# Mtb hypoxia inh growth: recorded beside Mtb hypoxia inh, whose call it bears; growth inhibition, %; measured here: M. tuberculosis growth (absorbance);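 0% = vehicle and 100% = reference antibiotic; read after six days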
# * = called active by the depositor; ? = inconclusive; / = no result given; & = joins results of further samples.
SMILES,Sa ugtP lethal,PrP UTR inh,Sa RN4220 lethal,Mtb hypoxia inh growth,Bead autofluor,Mtb hypoxia inh,BJeLR lethal
COc1ccc(NC(=O)C2(c3ccc(NC(=O)c4ccc(OC)c(OC)c4)cc3)CCCC2)cc1,1,/,6.3,0,9991,4,8
Cc1ccc(NC(=O)c2cc3ccccc3o2)cc1S(=O)(=O)N(C)C,-9,-98,2.7,0,4230,3,/
COc1cccc(C(=O)NCC(=O)OCC(=O)Nc2ncc(Cl)cc2Cl)c1,-1,-14,-9.9,-8,4036,0,2
Cc1cccc(OCC(=O)Nc2ccccc2N2CCN(C(=O)C(C)C)CC2)c1C,6,-9,0.3,10,9115,0,-6
Cc1cc(C)c2oc(C(=O)N(Cc3cccs3)C3CCS(=O)(=O)C3)cc(=O)c2c1 (stereo unspecified),-5,-12,2.3,11,5920,-5,13
C[C@@H]1CN([C@H](C)CO)C(=O)Cc2cc(NC(=O)Cn3cnnn3)ccc2O[C@@H]1CN(C)Cc1ccc(Cl)c(Cl)c1,-6,-13,3.9,5,3142,8,/
CCOC(=O)C1CCCN(C(=O)c2cc(=O)c3ccccc3o2)C1 (stereo unspecified),3,-15,5.6,7,4208,5,4
CC(NC(=O)C1CCN(S(=O)(=O)c2ccc3c(c2)NC(=O)CO3)CC1)c1ccccc1 (stereo unspecified),2,-5,0.3,17,5600,-3,-2
CSc1cc(C)n(-c2ccc(Cl)cc2)c(=S)c1C(C)=O,3,-16,4.1,/,2962,/,0
Cc1cccc(NC(=O)CN(C)C(=O)C2CCCC2)c1C,-1,-9,1.5,5,9346,2,/
CC(=O)Nc1ccc(C(=O)N/N=C/c2ccccc2OCc2ccccc2)cc1,/,-37,/,/,4637,/,-5
COCCn1c(=N)c(C(=O)NCCc2ccc(OC)cc2)cc2c(=O)n3cccc(C)c3nc21,-5,-4,-16,9,/,5,2
Cn1c(NC(=O)c2ccccc2)cc(=O)n(C)c1=O,-2,-12,5.7,7,4098,9,10
CCN(CC)c1ccc(NC(=O)c2cccc(OC)c2)c(C)c1,-9,-42,2.9,14,7662,10,6
Cc1ccnc(NC(=O)c2cccc(S(=O)(=O)N3CCOCC3)c2)c1,3,-38,-2.0,-3,5018,-7,4
CCOC(=O)c1c(NC2OC(=O)c3c2ccc(OC)c3OC)sc(C(=O)OC(C)(C)C)c1C (stereo unspecified),25,-42,1.5,-2,2560,3,1
CCOc1ccc(/C=N/NC(=S)NC2CC3C=CC2C3)cc1 (stereo unspecified),/,-101,/,/,3999,/,-6
COc1ccc(N2C(=O)CC(NCC#N)C2=O)cc1 (stereo unspecified),8,-19,3.0,6,4315,-2,3
Cc1ccc(NC(=O)c2cc(NC(=O)/C=C\C(=O)O)ccc2N2CCCCC2)cc1,-6,-24,2.2,-1,4266,1,1
CC(C)NC(=O)/C=C/C(=O)O,11,-41,-0.2,15,4027,15,2
COc1ccc(C(=O)/C=C/c2ccccc2C(F)(F)F)cc1,8,-35,6.5,7,8607,3,-2
CC(OC(=O)CC(C)c1ccccc1)C(=O)Nc1ccc(Cl)cn1 (stereo unspecified),7,-27,-0.4,-1,?,3,/
O=C(NCCO)C(=O)NCC1OCCCN1S(=O)(=O)c1ccc2c(c1)OCCO2 (stereo unspecified),2,-17,4.5,7,4996,8,-1
Cc1cc(C)c(S(=O)(=O)c2ccc(Cl)cc2)c(Cl)n1,5,-10,5.8,0,3368,13,-7
CCC(CC)c1nnc(NC(=O)c2ccc(S(=O)(=O)N3CCc4ccccc4C3)cc2)s1,22,-22,18,0,2051,-1,-2
O=C(Nc1ccccc1C(=O)N1CCOCC1)c1ccc(CSc2ccccc2)cc1,12,-20,4.2,10,3915,19,-3
CCOc1cc(/C=N/N=C(\N)c2nonc2N)cc(Br)c1OCc1cccc2ccccc12,/,-31,/,/,3187,/,-5
Cc1c2cccn2cc[n+]1C,11,-11,9.7,/,2291,/,-10
CCCCN1C(=O)N(C)C2NC(=O)NC21 (stereo unspecified),4,-14,1.2,/,2944,/,13
Cc1nn(CCCC(=O)Nc2cccnc2)c(C)c1[N+](=O)[O-],14,-2,3.8,-2,?,0,-3
O=C(COc1ccc(Br)cc1Cl)NC(=O)NC1CCCC1,-2,-26,11,-1,8531,3,/
Cc1cc(C)n2cc(CSc3nnnn3-c3ccc(Cl)cc3)nc2n1,-9,-26,-2.4,/,2340,/,/
COc1cccc(NC(=O)COC(=O)c2ccccc2C(=O)N(C)c2ccccc2)c1,2,-40,1.4,-7,3812,7,/
O=C(NC1CCCC1)C(c1ccccc1)N(Cc1ccc2c(c1)OCO2)C(=O)Cc1cccs1 (stereo unspecified),-8,-9,-4.9,/,3963,/,3
CCC(C(=O)NC(C)(C)C)N(Cc1ccco1)C(=O)Cn1nnc(-c2ccc(F)cc2)n1 (stereo unspecified),10,-17,0.0,5,4409,9,4
CC(=O)CSc1nnc(CSc2ncccn2)n1C1CCCCC1,15,-25,6.1,6,8270,8,3
CC(CCc1ccccc1)N1CCN(C)CC1 (stereo unspecified),8,-18,1.4,0,/,5,-4
CCC(C)(C)NC(=O)CN(C(=O)c1ccc(N2CCCC2)nc1)c1ccc(F)cc1,4,-9,1.2,-5,3606,10,-1
Cc1cccc(CCNCc2cc3ccc(C)cc3[nH]c2=O)c1,-5,-13,1.8,20,4144,13,-7
CC(=O)c1ccc(N2CCN(C(=O)c3ccc(NC4=NC5CS(=O)(=O)CC5S4)cc3)CC2)cc1 (stereo unspecified),-1,-14,-10.0,5,5235,8,-4
C=CC1c2cc(C)ccc2N(S(=O)(=O)c2ccc(C)cc2)C(c2ccc(OC(C)=O)cc2)C1(C#N)C#N (stereo unspecified),17,/,13,-4,/,8,/
Cc1ccc(Cn2c(CCCO)nc3ccccc32)cc1,1,-30,2.4,-4,3770,12,1
NC(=O)CC(NSc1ccccc1[N+](=O)[O-])C(=O)O (stereo unspecified),52,-14,22,/,5208,/,12
Cc1cccc(N(C)S(=O)(=O)c2ccc3[nH]cc(C(=O)N4CCOCC4)c(=O)c3c2)c1,4,-5,2.8,/,4814,/,-5
CN(C)c1ccc(C(=S)N2CCN(C(=S)Nc3ccc(Cl)cc3)CC2)cc1,10,-46,10,0,3447,6,13
CC1(C)CC(=O)C2=C(C1)N(N1CCOCC1)C(N)=C(C#N)C2c1cccnc1 (stereo unspecified),-3,-10,7.0,8,3184,12,4
COc1ccccc1N/C=C/c1onc(C)c1[N+](=O)[O-],1,49,9.9,3,3943,7,26
O=C(COc1ccccc1Cl)N1CCCC(N2CCN(c3ccc(F)cc3)CC2)C1 (stereo unspecified),2,-15,4.0,6,5621,12,-4
Cc1ccc(NC(=O)Cn2ccsc2=N)c([N+](=O)[O-])c1,-1,-17,4.1,11,5477,1,5
Cc1ccc(N(C)S(=O)(=O)c2nnc(NC(=O)c3ccco3)s2)cc1,-2,-35,3.9,21,6020,19,4
COC(=O)C1=C(c2ccc(F)cc2F)C[C@@H]2CC[C@H]1N2C(=O)NCc1ccco1,-6,0,-7.6,1,4165,2,/
CCOC(=O)N1CCN(C(=S)Nc2ccccc2C)CC1,9,-27,7.1,2,11171,4,-1
CC(C)n1cnc2c(N(C)c3ccccc3)nc(N(CCN(C)C)Cc3ccccc3)nc21,-22,-5,-4.3,19,2912,3,-11
COc1cccc(CNC(=O)Cc2ccc(-c3ccccc3)cc2)c1,/,-11,/,/,5802,/,8
CC(C)N=C1NN=C(c2cccs2)CS1,7,-39,2.6,2,4470,16,14
CCCC(CCC)=NNC(=O)c1ccccc1F,-3,-4,3.9,5,4581,1,-2
Cc1ccccc1C(=O)NNC(=O)c1ccc2nc[nH]c2c1,0,-15,0.7,-1,4654,5,7
O=C(NC1CCN(C(=O)c2cccs2)CC1)c1ccccc1,3,-11,-0.6,11,?,8,12
C/C(=N\O)C(=O)NCCN1CCCCC1,/,-14,/,/,8058,/,-8
CN1CCN(c2ccc(NC(=O)c3ccc(-c4ccc(Br)cc4)o3)cc2)CC1,28,-33,-2.6,10,2828,8,2

# Other structures follow:
SMILES,Sa ugtP lethal,PrP UTR inh,Sa RN4220 lethal,Mtb hypoxia inh growth,Bead autofluor,Mtb hypoxia inh,BJeLR lethal
CC1Cc2ccccc2N1C(=O)COc1nc2ccccc2nc1N1CCOCC1 (stereo unspecified),7,-22,2.1,/,2668,/,8
CC(CN1C(C)CCCC1C)OC(=O)c1cccc(F)c1 (stereo unspecified),8,-24,2.3,-5,3112,-4,3
COc1ccc2[nH]c(=O)c(CN(Cc3ccc4c(c3)OCO4)C(C)=O)cc2c1,2,5,8.0,-1,2374,-1,8
CSc1nncn1/N=C/c1ccc2c(c1)OCO2,/,-10,/,/,23493*,/,-1
CC(=O)n1cc(C2C=C(C(=O)N3CCN(Cc4ccc5c(c4)OCO5)CC3)OC(OCc3ccc(CO)cc3)C2)c2ccccc21 (stereo unspecified),3&6,/,1.8&1.6,9&9,/,3&2,/
Cc1onc(-c2ccccc2Cl)c1C(=O)Nc1ccc(N2CCOCC2)cc1,-6,-10,0.6,11,3288,-2,2
Cc1ccc(S(=O)(=O)N2CCCCC2)cc1NC(=O)c1ccc(Cl)nc1,2,-12,7.5,2,3937,13,/
NC(=O)c1ccc(NC(=O)C2COc3ccccc3O2)cc1 (stereo unspecified),2,-20,0.8,-1,3602,-1,6
COc1ccc(-c2csc(C3=C(O)CN(Cc4ccc(S(N)(=O)=O)cc4)C3=N)n2)cc1OC,-11,-8,6.3,0,2897,6,-16
Cc1cccc(C)c1NC(=O)N1CC=CCC1,2,-18,1.8,7,3969,-1,5
O=C(NCC1CCCO1)c1nnc(Cc2ccc(F)cc2)o1 (stereo unspecified),-7,-13,4.8,7,5923,2,9
O=S(=O)(NCc1cn2ccccc2n1)c1ccccc1F,-2,-2,2.6,2,5639,3,3
Cc1cccc(OCC(=O)Nc2nnc(S(=O)(=O)N3CCCCCC3)s2)c1,19,-22,6.1,0,5761,0,-2
CCOC(=O)C1CCN(C(=O)C2c3ccccc3C(=O)N(C)C2c2ccc(OC)cc2)CC1 (stereo unspecified),4,-22,3.7,-5,8313,-1,10

# 12 of the compounds above, with values under each structure.
# Values run as follows: Sa ugtP lethal	PrP UTR inh	Sa RN4220 lethal	Mtb hypoxia inh growth	Bead autofluor	Mtb hypoxia inh	BJeLR lethal
CN1CCN(c2ccc(NC(=O)c3ccc(-c4ccc(Br)cc4)o3)cc2)CC1
    28	-33	-2.6	10	2828	8	2
CC1Cc2ccccc2N1C(=O)COc1nc2ccccc2nc1N1CCOCC1 (stereo unspecified)
    7	-22	2.1	/	2668	/	8
CC(CN1C(C)CCCC1C)OC(=O)c1cccc(F)c1 (stereo unspecified)
    8	-24	2.3	-5	3112	-4	3
COc1ccc2[nH]c(=O)c(CN(Cc3ccc4c(c3)OCO4)C(C)=O)cc2c1
    2	5	8.0	-1	2374	-1	8
CSc1nncn1/N=C/c1ccc2c(c1)OCO2
    /	-10	/	/	23493*	/	-1
CC(=O)n1cc(C2C=C(C(=O)N3CCN(Cc4ccc5c(c4)OCO5)CC3)OC(OCc3ccc(CO)cc3)C2)c2ccccc21 (stereo unspecified)
    3&6	/	1.8&1.6	9&9	/	3&2	/
Cc1onc(-c2ccccc2Cl)c1C(=O)Nc1ccc(N2CCOCC2)cc1
    -6	-10	0.6	11	3288	-2	2
Cc1ccc(S(=O)(=O)N2CCCCC2)cc1NC(=O)c1ccc(Cl)nc1
    2	-12	7.5	2	3937	13	/
NC(=O)c1ccc(NC(=O)C2COc3ccccc3O2)cc1 (stereo unspecified)
    2	-20	0.8	-1	3602	-1	6
COc1ccc(-c2csc(C3=C(O)CN(Cc4ccc(S(N)(=O)=O)cc4)C3=N)n2)cc1OC
    -11	-8	6.3	0	2897	6	-16
Cc1cccc(C)c1NC(=O)N1CC=CCC1
    2	-18	1.8	7	3969	-1	5
O=C(NCC1CCCO1)c1nnc(Cc2ccc(F)cc2)o1 (stereo unspecified)
    -7	-13	4.8	7	5923	2	9

# Source: PubChem (several laboratories)
